VDR inh – blocks the human vitamin D receptor. 400,000 compounds, 0.93% hits. P11473. Potency, µM, for inactives: max response, negative = inhibition, hits mostly inhibitors. VDR-SRC2-3 peptide fluorescence polarization, 2 h; active means well fitted inhibition curve with a large enough effect; inconclusive means small, poorly fitted or top-dose-only effect, or another doubt; inactive means no such curve, though single readings can be large or run the other way; further: series mostly up to about 120 µM
Target sequence (P11473 whole entry, looked up): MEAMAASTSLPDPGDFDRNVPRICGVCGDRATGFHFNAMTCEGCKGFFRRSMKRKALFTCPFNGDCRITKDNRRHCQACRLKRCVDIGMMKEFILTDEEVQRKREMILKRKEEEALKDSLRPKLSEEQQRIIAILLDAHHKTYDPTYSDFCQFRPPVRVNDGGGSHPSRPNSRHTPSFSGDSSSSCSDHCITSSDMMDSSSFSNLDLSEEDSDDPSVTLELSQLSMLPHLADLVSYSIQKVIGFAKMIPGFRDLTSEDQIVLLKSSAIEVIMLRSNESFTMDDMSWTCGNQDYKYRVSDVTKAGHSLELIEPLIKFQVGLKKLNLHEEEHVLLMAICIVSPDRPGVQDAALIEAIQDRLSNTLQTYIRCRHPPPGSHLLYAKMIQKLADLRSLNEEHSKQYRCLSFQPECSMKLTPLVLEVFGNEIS
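Compounds are added to VDR with labelled SRC2-3 coactivator peptide and held 2 h at room temperature. Inhibition of the VDR–peptide interaction is then read as a change in fluorescence polarization.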
An asterisk follows results filed as active; ? = inconclusive; & = joins results of further samples; ! = a repeat was not active; [ ] = remark or other dose. On the % scale 0 is the no-effect control and ±100 the full control effect; potency means the concentration at half of the fitted maximal effect. Not all compounds are listed. The share of hits here may be higher or lower than overall.

Preview (2 entries):
mol | VDR inh
COc1ccc2oc(C(=O)OCC(=O)N(CCC#N)c3ccccc3)c(C)c2c1 | -9%
CC1=C(C(=O)OC(C)C)C(c2cccc(F)c2)n2ncnc2N1 (stereo not drawn) | -14%

All compounds of this part, from the start:
mol | VDR inh
COc1ccc2oc(C(=O)OCC(=O)N(CCC#N)c3ccccc3)c(C)c2c1 | -9%
CC1=C(C(=O)OC(C)C)C(c2cccc(F)c2)n2ncnc2N1 (stereo not drawn) | -14%
CCNC(=S)N(CCc1ccc(S(N)(=O)=O)cc1)C1CC(=O)N(c2ccccc2)C1=O (stereo not drawn) | -1%
COc1cccc(C(=O)NCC(=O)OCC(=O)C(C)(C)C)c1 | 17%
CCn1nc(C)cc1C(=O)N1CCCC(N2CCN(Cc3ccc4c(c3)OCO4)CC2)C1 (stereo not drawn) | -1%
Cc1ccc(SC(C)C(=O)Nc2c(C)n(C)n(-c3ccccc3)c2=O)cc1 (stereo not drawn) | -5%
c1cc(N2CCCC2)ccc1C(c1nnnn1C1CCCCC1)N1CCOCC1 (stereo not drawn) | -4%
O=C(CCS(=O)(=O)c1cccs1)Nc1ccc(C(=O)NCc2cccs2)cc1 | 9%
Cc1ccc(CNC(=O)Cn2ccc3cc(S(=O)(=O)N4CCCCCC4)ccc32)cc1 | 4%
COc1ccc(CNc2oc(/C=C/c3cccc(OC)c3)nc2C#N)cc1 | 9%

Structures shown so far with a cyano group, in the order listed:
mol | VDR inh
COc1ccc2oc(C(=O)OCC(=O)N(CCC#N)c3ccccc3)c(C)c2c1 | -9%
COc1ccc(CNc2oc(/C=C/c3cccc(OC)c3)nc2C#N)cc1 | 9%

(next part)
mol | VDR inh
CCc1ccc(C(=O)N2CCCN(C)CC2)s1 | -7%
O=C(OCC(=O)N1CCCCC1)c1cccc(NS(=O)(=O)c2ccccc2)c1 | -14%
C=CCn1c(C)nc2c(cnn2-c2ccccc2)c1=O | 11%
COc1ccc(Br)cc1S(=O)(=O)NCc1ccccn1 | -12%
CCOc1ccc2nc(NC(=O)CSc3nc(SC)ns3)sc2c1 | -7%
CC(C)[C@H](NS(=O)(=O)c1ccc(Cl)cc1)C(=O)OCC(=O)c1c(N)n(C)c(=O)n(C)c1=O | -1%
Oc1ccc(Cl)cc1C1=Nc2ccccc2N=C(c2cccc(Br)c2)C1 | -6%
Cc1ccc(-c2csc3nc(SCC(N)=O)n(Cc4ccccc4)c(=O)c23)cc1 | -1%
COc1ccccc1C(=O)NC(=O)COc1cc(Cl)ccc1Cl | 7%
Cc1cc(C(F)(F)F)c(C#N)c(SCC(=O)Nc2nc3ccccc3s2)n1 | -14%

Continuation:
mol | VDR inh
CC1=NN(C(N)=S)C(=O)C1N=Nc1ccc(Cl)cc1 (stereo not drawn) | ?
Cc1ccc(/C=C2\SC(=S)N(CCC(=O)Nc3cccnc3)C2=O)cc1 | -15%
CCOc1ccccc1C(=O)Nc1ccc(S(=O)(=O)Nc2nccc(C)n2)cc1 | -9%
Cc1nn(-c2ccccc2)c(C)c1C(=O)Nc1nnc(-c2ccco2)o1 | 18%
C=CCNC(=O)c1ccccc1SCc1c(C)noc1C | -6%
O=C(ONC(=O)C1CCCCC1C(=O)NOC(=O)c1ccccc1)c1ccccc1 (stereo not drawn) | -2%
Nc1ccc(S(=O)(=O)C(F)(F)F)cc1N | 5%
CCCCn1c(N)c(N(CCC(C)C)C(=O)C2CC(=O)N(c3ccccc3OCC)C2)c(=O)[nH]c1=O (stereo not drawn) | -1%
O=C(COC(=O)c1cccc(O)c1)NC(=O)Cc1ccccc1 | -12%
CCOC(=O)c1cc(S(=O)(=O)Nc2ccc(OC(F)(F)F)cc2)[nH]n1 | 6%

Part of the list above in order of molar mass, lowest first:
mol | VDR inh
Nc1ccc(S(=O)(=O)C(F)(F)F)cc1N | 5%
Cc1nn(-c2ccccc2)c(C)c1C(=O)Nc1nnc(-c2ccco2)o1 | 18%
O=C(ONC(=O)C1CCCCC1C(=O)NOC(=O)c1ccccc1)c1ccccc1 (stereo not drawn) | -2%

Next section:
mol | VDR inh
CCN(CC)c1ccc(NC(=O)CCS(=O)(=O)c2cccc3nsnc23)c(C)c1 | -17%&-5%
CC(=O)c1sc(N/N=C/c2cccc(O)c2)nc1C | -22%
CCCN1CCC(=O)N([C@H](CSc2ccc(OC)cc2)c2ccccc2)CC1 | -15%
CC(CNC(=O)c1cccc(Br)c1)n1cncn1 (stereo not drawn) | -2%
O=C(CCC(=O)N1CCCC(Nc2ccccc2)C1)c1ccc(F)cc1 (stereo not drawn) | -11%
CC(=O)N1CCOc2ccc(S(=O)(=O)N3CCC(C(=O)Nc4cc(C)cc(C)c4)CC3)cc21 | 5%
CCOC(=O)N1CCN(C(=O)C(=O)c2cn(CC(=O)N3CCCCCC3)c3ccccc23)CC1 | -3%
CCN1C(=O)[C@@H]2[C@@H](c3ccc(-c4ccc5c(c4)OCO5)c(OC)c3)N3CCCC[C@@]3(C(=O)OC)[C@@H]2C1=O | 2%
CC(C)(C)c1ccc(OCC(=O)Nc2ccncc2)c(Br)c1 | -9%
O=C(CNC(=O)c1ccccc1Br)N/N=C\c1cc([N+](=O)[O-])cc(Br)c1O | -3%

Single values from the results shown.
VDR inh with `CC(=O)N1CCOc2ccc(S(=O)(=O)N3CCC(C(=O)Nc4cc(C)cc(C)c4)CC3)cc21` reads 5%
VDR inh with `O=C(CCC(=O)N1CCCC(Nc2ccccc2)C1)c1ccc(F)cc1` (stereo not drawn) reads -11%
VDR inh with `O=C(CNC(=O)c1ccccc1Br)N/N=C\c1cc([N+](=O)[O-])cc(Br)c1O` reads -3%
VDR inh with `CCCN1CCC(=O)N([C@H](CSc2ccc(OC)cc2)c2ccccc2)CC1` reads -15%

(listing goes on)
mol | VDR inh
COc1ccc2c(=O)cc(-c3ccncc3)oc2c1OC | 2%
CN(C1CCCCC1)S(=O)(=O)c1cccc(C(=O)Nc2ccccn2)c1 | -8%
CC1(C)CCCC2=C1CC1C(=O)N(Cc3cccnc3)C(=O)C1C2 (stereo not drawn) | -12%
CCOC(=O)C(NCc1ccc2c(c1)OCO2)(NC(=O)c1ccccc1)C(F)(F)F (stereo not drawn) | -7%
O=C(Cn1cccc1)NC1CCCCCC1 | -7%
CC1(C)CCC(C)(C)c2cc(C(=O)Nc3ccc(C(=O)O)cc3)ccc21 | 79µM*!
Cc1cccc(C(=O)N(C)c2nnc(-c3ccncc3)s2)c1 | -8%
COc1cccc(/C=N/Nc2ncnc3scc(-c4ccccc4)c23)c1O | -2%
Cc1cccc(NC(=O)c2ccccc2NC(=O)c2ccccc2)n1 | -19%
CCc1nnc(SCC(=O)Nc2ccccc2Cl)nc1CC | -10%&3%

The list continues:
mol | VDR inh
COc1ccc(N/C=C2\C(=O)c3c(sc(C)c3C)N(C)S2(=O)=O)cc1 | 4%
COc1ccc(NC(=O)c2cn(CCC#N)nc2-c2cc3ccccc3o2)cc1 | 3%
Cc1ccc(-c2csc(N(CCO)CCCn3c(C(F)(F)F)nc4ccccc43)n2)cc1 | -3%
O=C(NNC(=O)c1cccc2ccccc12)c1ccc(Br)cc1 | -11%
O=C(Nc1cc(C(F)(F)F)ccc1Cl)c1cc2nc(-c3ccc4c(c3)OCO4)cc(C(F)(F)F)n2n1 | -7%
Cc1ccc(S[C@@H](CCN2CC[C@H](C(C)(C)C)CCC2=O)c2ccccc2)cc1 | -14%
Cc1cccc(C)c1N1CCN(S(=O)(=O)N2CCCCC2)CC1 | -4%
CCOC(=O)c1ccc(NC(=S)NCc2cccnc2)cc1 | -8%
O=C(CCl)N1CCN(C(=O)C2COc3ccccc3O2)CC1 (stereo not drawn) | -21%
C=CCNc1nc2ccccc2nc1NS(=O)(=O)c1cccc(C)c1 | -3%

(further entries)
mol | VDR inh
COc1cc(NC(=O)CN2CCN(S(=O)(=O)/C=C/c3ccccc3)CC2)cc(OC)c1OC | ?
CCN(CC)S(=O)(=O)c1ccc(Cl)c(C(=O)NCc2ccccc2Cl)c1 | 4%
CC(C)N(Cc1ccccc1)C(=O)CN1C(=O)c2ccccc2C1=O | 0%
OCc1cn(-c2ccccc2)nc1-c1ccc2c(c1)OCCO2 | 18%
C#CC(CC)(CC)NC(=O)NC1CCCCC1 | 13%
O=C(CN1CCCC1)N1CCCC(c2ccc(F)cc2)c2ccc(F)cc21 (stereo not drawn) | -9%
Cc1cccc2c1cnn2C(=O)Nc1ccccc1Br | 0%
COc1cccc(N(Cc2nnc3n2CCCCC3)C(=O)Nc2cccc(Cl)c2)c1 | 10%
O=S(=O)(Nc1ccc(C(F)(F)F)cc1)c1cccs1 | -16%
O=C(NCCNc1ccnc2cc(Cl)ccc12)c1ccccc1F | ?

(next part)
mol | VDR inh
N#Cc1ccccc1S(=O)(=O)N1CCN(CC(=O)Nc2ccnn2C2CCCC2)CC1 | -4%
COc1ccc(S(=O)(=O)Nc2ccccc2C(N)=O)cc1OC | 10%
Cc1ccc(OCCSc2nc3ccccc3n2CC(=O)N2CCOCC2)cc1C | -3%
COc1ccc(C(=O)N2CCCC(CCC(=O)N3CCN(c4ccccn4)CC3)C2)cc1 (stereo not drawn) | -2%
COc1ccc(/C=C/C(=O)N/C(=C\c2ccco2)C(=O)NCCc2nc3ccccc3[nH]2)cc1 | -10%
CCC(=O)Nc1ccc(C(=O)N/N=C/c2c(C)[nH]c3ccccc23)cc1 | -5%
CCc1nc(C)cn1S(=O)(=O)c1cc(C)c(OC)cc1C | 0%
CC(=O)NN1C(=O)c2ccccc2NC1c1ccccc1F (stereo not drawn) | 7%
Cc1cccc(-c2nc(SCCCOc3ccc(Cl)c(C)c3)n3[nH]c(=O)cc3n2)c1 | 18%
CCc1ccc(OCCCC(=O)Nc2cccc(C(=O)O)c2)cc1 | 35%[activator]

Continued:
mol | VDR inh
C/C(=N\NC(=O)C1COc2ccccc2O1)c1ccc(N2CCOCC2)cc1 (stereo not drawn) | 6%
C(=N\n1cnnc1)/c1cccc2ccccc12 | 2%
O=C(CN1C(=O)COc2ccc(S(=O)(=O)N3CCCC3)cc21)NC1CC1 | -17%
CS(=O)(=O)Nc1ccc(C(=O)Nc2ccccc2Sc2ccccc2)cc1 | 1%
CC(=O)Nc1nonc1-c1nnc(SCC(=O)Nc2cc(C)cc(C)c2)n1C | 4%
Cc1ccc(OCC(=O)Nc2ccc([N+](=O)[O-])cn2)cc1C | 4%
Cc1c(C(=O)N2CCC[C@H]2C(N)=O)oc2c(F)cccc12 | 10%
COc1ccc(C(=O)OCC(=O)c2ccc(F)cc2)cc1OC | -13%
CC(C(=O)NCC1CCCCC1)N(C)Cc1ccc(Br)cc1 (stereo not drawn) | 15%
CCN(CC)c1ccc(N=Cc2ccc(N(CC)CC)cc2O)cc1 | 50µM*

(listing goes on)
mol | VDR inh
CCOc1ccc(CN2CCN(Cc3ccc(C)o3)CC2CCO)cc1 (stereo not drawn) | -5%
c1ccc2sc(NC3=NCN(Cc4ccc5c(c4)OCO5)CN3)nc2c1 | -9%
CCOc1ccc(S(=O)(=O)NCc2ccc(OC)cc2)c2cccnc12 | -13%
COc1cc(SC)ccc1C(=O)NCC1CCCCC1 | -5%
CCc1ccc2c(c1)cc(CN(C(=S)Nc1ccc(Cl)cc1)C1CC1)c1nnnn12 | 11%
CSc1nc2sc3c(c2c2nncn12)CCC3 | 3%
CCCN1C(=O)C(=O)c2cc(C)ccc21 | -8%
CCS(=O)(=O)c1ccc2c(c1)N(S(=O)(=O)c1ccc(Cl)cc1)CC(C(=O)O)O2 (stereo not drawn) | 15%
C=CCc1ccccc1OCCn1c(C2CC(=O)N(Cc3ccc(F)cc3)C2)nc2ccccc21 (stereo not drawn) | 9%
NC(=O)Cc1ccc(Nc2nnc(-c3ccccc3)c3ccccc23)cc1 | -12%

(cont.)
mol | VDR inh
S=C1NCCN1CC1CCN(CCCC2CCCC2)CC1 | -9%
O=C(O)c1cc(-n2nnnc2SCc2ccccc2F)ccc1Cl | 22%
CCN(CC(=O)NC1CCS(=O)(=O)C1)c1nc(-c2cccnc2)nc2ccccc12 (stereo not drawn) | 18%
O=C(Cn1c(=O)sc2ccccc21)Nc1ccc2c(c1)OCCO2 | 8%
O=C(O/N=C1\CCS(=O)(=O)c2sccc21)c1c(F)cccc1F | -20%
C1=C2C[N+]3(CCCC3)CC2Cc2ccc3ccccc3c21 (stereo not drawn) | -1%
CC(C)(Oc1ccc(Cl)cc1)C(=O)NCC(c1ccco1)N1CCCCC1 (stereo not drawn) | -16%
Cc1ccc(OCC(=O)NCC(=O)OCc2cc(=O)n3nc(CC(C)C)sc3n2)cc1 | 12%
CC(C)NC(=O)c1ccccc1NC(=O)Cc1ccc(Cl)cc1 | -9%
CCOC(=O)C1CCN(C(=O)C2CCN(c3nnc(C)c4c(C)n(-c5ccccc5)nc34)CC2)CC1 | 11%

The list goes on:
mol | VDR inh
N#Cc1c(N)nc2c(c1-c1ccc3c(c1)OCO3)CCCCCC2 | -10%
C[C@@H](CN=[N+]=[N-])CN1CC[C@H](O)CCC1=O | 10%
O=C(c1csc2ccccc12)n1cccn1 | -18%
CCn1nc(C)c(C2C(C#N)=C(N)OC3=C2C(=O)CCC3)c1C (stereo not drawn) | -4%
COC(=O)C1=CO[C@@H](O)C2C(CO)=CCC12 (stereo partly drawn) | -4%
CCNc1ccc(C(=O)OCC(=O)NCc2ccccc2Cl)cc1[N+](=O)[O-] | -4%
COc1cc(C(=O)NCC(c2ccco2)S(=O)(=O)c2cccs2)cc(OC)c1OC (stereo not drawn) | 10%
COc1ccc(NC(=O)CN2CCCN(S(=O)(=O)c3ccc(Br)cc3)CC2)c(OC)c1 | 0%
Cn1cnc(C(=O)N2CCc3ccccc3C2)c1C(=O)N1CCc2ccccc2C1 | -17%
COC(=O)CNC(=O)COC(=O)c1cc(SC)ccc1Cl | -10%
O=C1NCCCC1C(=O)N/N=C/c1cccc(O)c1 (stereo not drawn) | 4%
Cc1nc2ccccc2nc(C)c1=NOCC(=O)N(c1ccccc1)C(C)C | 15%
